High-throughput results deposited in PubChem by Broad Institute.
ID4 SMM = binders of human ID4 protein, primary screen, biochemical, small molecule microarray, single point. Flag-ID4 binding, fluorescence F/B. AID 624137, 2012. calls only. hit rate 1.2% among 31,000;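 active means spot signal over background at p below 0.07 in all four prints; compounds were printed on slides so no solution concentration is given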;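 further: a binder raises fluorescence above local background on the spot; about 2 pmol printed per array spot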
Target sequence (P47928 whole entry, looked up): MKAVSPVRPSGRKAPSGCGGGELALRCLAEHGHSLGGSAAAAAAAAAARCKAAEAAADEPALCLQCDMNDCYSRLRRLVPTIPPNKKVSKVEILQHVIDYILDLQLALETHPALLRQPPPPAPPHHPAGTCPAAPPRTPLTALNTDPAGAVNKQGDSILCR
Calls only; i = inactive; + = active, no number. An excerpt, so the mix of outcomes need not match the whole.

mol	ID4 SMM
CC1(C)CC(=O)C2=C(C1)N(Cc1ccc(F)cc1)C(=O)C2(NC(=O)c1cccnc1)C(F)(F)F (configuration not stated)	i
Cc1ccc(S(=O)(=O)NC(C)C(=O)Nc2c(F)cccc2F)cc1 (configuration not stated)	i
CS(=O)(=O)N(CC(=O)Nc1ccc(F)c(F)c1)c1ccccc1Br	i
COc1ccc(-c2cnc3c(c2)C(=O)N([C@@H](C)CO)C[C@@H](C)[C@H](CN(C)C)O3)cc1	i
COc1ccc(Nc2nc(N)nc(CSc3nc(C)cc(C)n3)n2)cc1	i
C[C@@H]1CN([C@@H](C)CO)C(=O)c2ccccc2-c2ccccc2CO[C@@H]1CN(C)S(=O)(=O)c1ccccc1C#N	i
COc1ccccc1C#Cc1ccc2c(c1)O[C@H](CN(C)C(C)=O)[C@H](C)CN([C@H](C)CO)S2(=O)=O	i
O=C(Nc1ccccc1[N+](=O)[O-])c1cccc(S(=O)(=O)N2CCOCC2)c1	i
COc1ccccc1-c1ccc2c(c1)O[C@@H](CN(C)Cc1ccc3c(c1)OCO3)[C@@H](C)CN([C@H](C)CO)S2(=O)=O	i
CC(C)NC(=O)N[C@@H]1CC[C@@H](CC(=O)NCCCN(C)C)O[C@@H]1CO	i
Cc1cc(=O)[nH]c(SCCOc2ccc3c(c2)CCC3)n1	i
C[C@@H]1CN([C@@H](C)CO)C(=O)c2cc(-c3ccc(F)cc3)cnc2O[C@H]1CN(C)Cc1cccnc1	i
FC(F)(F)c1ccnc(NCCNC(=S)NCc2ccco2)n1	i
C[C@@H]1CN([C@@H](C)CO)C(=O)c2cc(/C=C/c3ccccc3)cnc2O[C@@H]1CN(C)C(=O)C1CCC1	i
C=C(C)C(=O)Nc1ccc(Oc2ccccc2F)nc1	i
COc1ccc(C)cc1S(=O)(=O)N(C)CC(=O)Nc1cccc([N+](=O)[O-])c1	i
Cc1cc(N(CC(=O)NC2CCCCCC2)S(C)(=O)=O)ccc1Br	i
COc1ccc(-c2cc(C(F)(F)F)nc(SCC(=O)N(C)c3ccccc3)n2)cc1OC	i
CS(=O)(=O)N(CC(=O)Nc1ccccc1)Cc1ccc(Cl)cc1	i
O=C(N[C@@H]1CC[C@@H](CC(=O)N2CCN(c3ccccc3)CC2)O[C@H]1CO)c1ccccc1	i
Cc1cc(NC(=O)CSc2nnc(-c3ccccc3)n2-c2ccc(F)cc2)ccc1Br	i
CC(=O)c1cccc(NC(=O)CN(C)S(=O)(=O)c2ccccc2)c1	i
COc1ccc(NC(=O)Nc2ccc3c(c2)[C@@H]2C[C@@H](CC(=O)N4CCc5ccccc5C4)O[C@@H](CO)[C@@H]2O3)cc1	i
O=C(COc1ccccc1Cl)Nc1ccccc1[N+](=O)[O-]	i
O=C(NCC[C@H]1CC[C@@H](NC(=O)C2CCCCC2)[C@@H](CO)O1)c1cc(Cl)cc(Cl)c1	i

Following part:
mol	ID4 SMM
Cc1ccc(-c2nnc3c4ccccc4c(C)nn23)cc1S(=O)(=O)N(C)CCO	i
COc1ccc(C(=O)Nc2ccc3c(c2)C(=O)N(C)C[C@@H](OC)[C@H](C)CN[C@H](C)CO3)cc1	i
N#C[C@H]1[C@@H](c2ccc(C3=CCCC3)cc2)[C@@H](CO)N1C(=O)C1CCCC1	i
CCn1c(SCC(=O)Nc2ccccc2OC)nnc1-c1c[nH]c2ccccc12	i
C/C=C/[C@H](CC(=O)N1Cc2ccccc2C[C@H]1CO)[Si](C)(C)c1ccc(OC)cc1	i
CCn1cc(C(=O)O)c(=O)c2cnc(N3CCCC3)nc21	i
CN(CC(=O)Nc1ccccc1-c1ccccc1)S(=O)(=O)c1cc(Cl)ccc1Cl	i
CC(C)(C)c1ccc(S(=O)(=O)NCC(=O)Nc2ccc3c(c2)OCCO3)cc1	i
Cc1nnc(SCC(=O)c2ccc3c(c2)OCCO3)s1	i
C[C@@H]1CN([C@@H](C)CO)C(=O)c2ccccc2-c2ccccc2CO[C@H]1CN(C)Cc1ccncc1	i
C[C@@H]1CN([C@@H](C)CO)C(=O)c2cc(C#CCN(C)C)cnc2O[C@@H]1CN(C)Cc1cccc(F)c1	i
CCN1CCC[C@H]1CNC(=O)c1cc(S(N)(=O)=O)ccc1OC	i
NC(=O)CSc1ncnc2scc(-c3ccc(Cl)cc3)c12	i
COc1cccc(-c2cnc3c(c2)C(=O)N([C@H](C)CO)C[C@H](C)[C@H](CN(C)CC2CCOCC2)O3)c1	i
COc1ccc(C(=O)CSc2nnc(-c3ccccc3Cl)n2-c2ccccc2)cc1	i
C[C@@H]1CN([C@H](C)CO)C(=O)c2cc(C3=CCCC3)cnc2O[C@H]1CN(C)Cc1ccccc1F	i
O=C(CC1CC1)Nc1ccc2c(c1)[C@H]1C[C@@H](CC(=O)N3CCCCC3)O[C@@H](CO)[C@H]1O2	i
Cc1ccc(SCC(=O)Nc2ccccc2C(=O)N2CCOCC2)cc1	i
C[C@H](CO)N1C[C@H](C)[C@@H](CN(C)Cc2ccccc2F)Oc2cc(C3=CCCC3)ccc2S1(=O)=O	i
CN(C)C(=O)C[C@@H]1CC[C@H](NC(=O)C2CCOCC2)[C@H](CO)O1	i
CC(C)NC(=O)N[C@@H]1C=C[C@@H](CC(=O)NC2Cc3ccccc3C2)O[C@H]1CO	i
Cn1c(=O)c2c(ncn2CC(O)CNc2ccc(Cl)cc2)n(C)c1=O (configuration not stated)	i
CS(=O)(=O)N(CC(=O)Nc1cc(C(F)(F)F)ccc1Cl)c1ccccc1Br	i
CCCN(C)C[C@@H]1OCCCC[C@@H](C)Oc2ccc(N(C)C)cc2C(=O)N([C@@H](C)CO)C[C@@H]1C	i
O=C(N[C@@H]1C=C[C@@H](CC(=O)N2CCN(c3ccccc3)CC2)O[C@H]1CO)c1ccccc1	i

Going on with the list:
mol	ID4 SMM
Cc1ccc(S(=O)(=O)NCC(=O)Nc2ccc(C(F)(F)F)cc2)cc1	i
CCOC(=O)c1c(NC(=O)Cn2c(=O)oc3ccccc32)sc(C(C)=O)c1C	i
C[C@@H]1CN([C@H](C)CO)C(=O)c2cccc(NC(=O)C3CC3)c2O[C@H]1CN(C)Cc1ccccc1	i
Cc1ccc2c(C)nc(Nc3nc(CSc4nnc(C)s4)cc(=O)[nH]3)nc2c1	i
CN1CCN(C(=O)C[C@H]2C[C@H]3c4cc(NC(=O)c5ccc6c(c5)OCO6)ccc4O[C@H]3[C@@H](CO)O2)CC1	i
COc1ccc(C(=O)CSc2n[nH]c(-c3ccc(C)cc3)n2)cc1	+
O=C(CC1CC1)Nc1ccc2c(c1)[C@@H]1C[C@@H](CC(=O)N3CCc4ccccc4C3)O[C@@H](CO)[C@@H]1O2	i
COc1ccc(CNC(=O)C[C@@H]2CC[C@@H](NC(=O)CN(C)C)[C@@H](CO)O2)cc1	i
COc1ccc(C)cc1S(=O)(=O)N(C)CC(=O)NC1CCCC1	i
C[C@@H]1CN([C@H](C)CO)S(=O)(=O)c2ccc(C#C[C@@H](C)O)cc2O[C@H]1CN(C)CC1CCCC1	i
C[C@@H]1CN([C@H](C)CO)C(=O)c2cc(-c3ccncc3)cnc2O[C@H]1CN(C)S(=O)(=O)c1ccccc1	i
CCC(=O)N(C)C[C@H]1Oc2ncc(Br)cc2C(=O)N([C@@H](C)CO)C[C@H]1C	i
C[C@@H]1CN([C@H](C)CO)C(=O)c2cc(Br)cnc2O[C@@H]1CN(C)Cc1ccncc1	i
CCCc1cn(CC[C@H]2CC[C@H](NC(=O)C3CC3)[C@H](CO)O2)nn1	i
CS(=O)(=O)N(CC(=O)NC1CC2CCC1C2)c1cc(Cl)c(Cl)cc1Cl (configuration not stated)	i
COc1cc(NC(=O)CN(C)S(=O)(=O)c2ccc(C)cc2)c(OC)cc1Cl	i
CCCNC(=O)N(C)C[C@@H]1Oc2ncc(C#CCc3ccccc3)cc2C(=O)N([C@H](C)CO)C[C@@H]1C	i
CCCN(C)C[C@@H]1Oc2ncc(C#Cc3ccc(OC)cc3)cc2C(=O)N([C@H](C)CO)C[C@@H]1C	i
COc1cccc(OCC(=O)Nc2ccc(-c3nc4ccccc4o3)cc2)c1	i
C[C@@H]1CN([C@@H](C)CO)C(=O)c2cc(Br)cnc2O[C@@H]1CN(C)C(=O)c1ccccc1	i
CC(Oc1ccc(C(=O)Nc2ccc(Cl)cc2)cc1)C(=O)Nc1ccc(Br)cc1 (configuration not stated)	i
COc1ccccc1CNC(=O)C[C@@H]1C[C@@H]2c3cc(N(C)C)ccc3O[C@@H]2[C@H](CO)O1	i
O=C(Nc1cccc([N+](=O)[O-])c1)Nc1nn(Cc2c(F)cccc2Cl)cc1Br	i
CCC(=O)Nc1ccc2c(c1)OC[C@@H](C)N(Cc1ccccn1)C[C@@H](C)[C@H](OC)CN(C)C2=O	i
C[C@H](CO)N1C[C@H](C)[C@H](CN(C)C(=O)c2ccc(F)cc2)Oc2ncc(C#CC3CC3)cc2C1=O	i

(continued)
mol	ID4 SMM
NC(=O)[C@@H]1[C@H]2C(=O)O[C@H](c3ccccc3)[C@H](c3ccccc3)N2[C@H](c2ccc(O)cc2)[C@@]12C(=O)Nc1ccc(C#CC3=CCCCC3)cc12	i
COc1ccc(N2CCN(C(=O)CCNS(=O)(=O)c3ccc(Br)s3)CC2)cc1	i
COc1ccc(-c2cnc3c(c2)C(=O)N([C@@H](C)CO)C[C@H](C)[C@H](CN(C)Cc2ccccn2)O3)cc1	i
Cc1cc(C)c2oc(-c3cccc(NC(=O)COc4ccc(Cl)cc4)c3C)nc2c1	i
C[C@H](CO)N1C[C@H](C)[C@H](CN(C)C(=O)C2CC2)Oc2ncc(C#Cc3ccccc3)cc2C1=O	i
CC(=O)c1ccc(NC(=O)CN(C)S(=O)(=O)c2ccc(Cl)cc2)cc1	i
C[C@H]1CN([C@@H](C)CO)S(=O)(=O)c2ccc(C3=CCCCC3)cc2O[C@H]1CN(C)C	i
O=C(CSc1nnc2ccc3ccccc3n12)Nc1ccc2c(c1)OCCO2	i
CS(=O)(=O)N(CC(=O)NC1CCCC1)c1ccc(Cl)cc1	i
NC(=O)COc1ccc(NC(=O)c2cncc(Br)c2)cc1	i
CC(C(=O)Nc1ccccc1Cl)N(c1ccccc1)S(C)(=O)=O (configuration not stated)	i
Cc1noc(C)c1NC(=O)N(C)C[C@@H]1Oc2cc(C#CCN(C)C)ccc2S(=O)(=O)N([C@@H](C)CO)C[C@@H]1C	i
CN(C)c1ccc2c(c1)[C@@H]1C[C@@H](CC(=O)NC3CCCC3)O[C@H](CO)[C@@H]1O2	i
CCOC(=O)c1sc2ncn(CC(=O)Nc3cccc(Br)c3)c(=O)c2c1C	i
CCn1c(SCC(=O)Nc2ccc(OC)c(Cl)c2)nnc1-c1ccccc1O	i
O=C(NCc1cccnc1)c1cc(-c2ccccc2)on1	i
Cc1ccccc1-c1cnc2c(c1)C(=O)N([C@@H](C)CO)C[C@H](C)[C@H](CN(C)C(=O)c1ccncc1)O2	i
O=C(C[C@@H]1CC[C@H](NC(=O)c2cccc(F)c2)[C@@H](CO)O1)NCc1ccc(Oc2ccccc2)cc1	i
CCCC#Cc1cnc2c(c1)C(=O)N([C@@H](C)CO)C[C@@H](C)[C@H](CN(C)C(=O)Cc1ccccc1)O2	i
Cc1ccc(NC(=O)c2ccc(OC(C)C(=O)Nc3ccccc3)cc2)cc1 (configuration not stated)	i
O=C(O)C1=C[C@H](c2ccc3c(c2)Cc2ccccc2-3)C[C@H](OCCCCO)O1	i
CC(=O)CSc1ncnc2scc(-c3ccc(F)cc3)c12	i
O=C(Nc1cc(F)ccc1F)N[C@H]1C=C[C@H](CC(=O)N2CCc3ccccc3C2)O[C@@H]1CO	i
O=C(CSc1nnc(-c2cccc(F)c2)n1-c1ccccc1)Nc1ccc(F)cc1	i
O=C(C[C@H]1CC[C@@H](NC(=O)CC2CC2)[C@H](CO)O1)NCc1ccc(Cl)cc1	i

Additional records.
mol	ID4 SMM
CN1CCN(C(=O)C[C@@H]2CC[C@@H](NS(=O)(=O)c3cccc(F)c3)[C@@H](CO)O2)CC1	i
O=C(O)C1C2C=CC(C2)C1C(=O)Nc1ccc(C(=O)N2CCCCC2)c(Cl)c1 (configuration not stated)	i
COc1cc(NC(=O)C2C3C=CC(C3)C2C(=O)O)ccc1NC(=O)c1ccccc1 (configuration not stated)	i
O=C(C[C@H]1C=C[C@H](NS(=O)(=O)c2ccc(F)cc2)[C@H](CO)O1)NCc1ccncn1	i
COc1ccc(-c2nnc(SCC(=O)Nc3cccc(SC)c3)n2C)cc1	i
Nc1ncnc(NCCCN2CCOCC2)c1[N+](=O)[O-]	i
COc1ccc(NC(=O)CSc2nnc(C)c(=O)[nH]2)cc1Cl	i
C[C@H](CO)N1C[C@H](C)[C@H](CN(C)C(=O)c2cccc(F)c2)Oc2ncc(C3=CCCCC3)cc2C1=O	i
